High-throughput results from PubChem.
Ecoli growth = E. coli growth inhibition, primary screen, OD600; OD600 absorbance (test concentration not listed); AID 1053175, 2014; 0.21% of 330,000 active; Escherichia coli growth, 23 h; stronger effect = lower value;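 active means OD600 absorbance below the run mean of sample wells minus 3.6 SD, in any replicate, cut at about 0.56 in these data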;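 further: stock transfer was 300 nL into about 60 µL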
UCH37 inh = inhibitors of human UCH37 deubiquitinase, primary screen, biochemical, Ub-AMC cleavage, fluorescence; purified proteasome/UCH37; inhibition, % (concentration not given with the values); 0.33% of 330,000 active;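 active means mean of two replicates above 20%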;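 further: 0% = compound-free wells with enzyme and 100% = wells lacking proteasome; stock transfer was 100 nL into about 20 µL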
Target sequence (Q9Y5K5 whole entry, looked up): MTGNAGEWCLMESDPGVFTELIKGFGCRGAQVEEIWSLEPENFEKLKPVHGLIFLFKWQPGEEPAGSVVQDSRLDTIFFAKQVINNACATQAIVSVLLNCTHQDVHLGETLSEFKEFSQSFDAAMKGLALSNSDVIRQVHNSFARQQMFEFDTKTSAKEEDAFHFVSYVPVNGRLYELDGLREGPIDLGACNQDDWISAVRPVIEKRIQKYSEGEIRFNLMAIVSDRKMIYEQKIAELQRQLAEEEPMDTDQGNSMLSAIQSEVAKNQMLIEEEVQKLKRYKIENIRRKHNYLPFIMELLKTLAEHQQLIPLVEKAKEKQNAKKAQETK
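Assay system: Proteasome-bound UCH37. Buffer or medium: pH 7.4 Tris-HCl (50 mM) with ovalbumin, ATP-MgCl2, DTT. Incubation: 30 min preincubation with enzyme, 25 min cleavage at room temperature. Measured by: fluorescence, ex 355 nm, em 460 nm. Read-out basis: percent inhibition. Control set: wells without proteasome as full block, compound-free enzyme plus substrate as uninhibited.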
T cruzi repl = inhibitors of intracellular T. cruzi growth, primary screen, luminescence, NIH3T3 host cells | T. cruzi beta-gal in NIH3T3, 90 h | inhibition, % (no concentration beside the values) | 1.4% of 300,000 active | AID 1885, 2009;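 active means mean inhibition across valid replicates above about 55%, limit read from the data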;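 further: signal also drops with host cell toxicity which is not excluded here; 0% = plate median of DMSO wells and 100% = zero luminescence signal; higher percent means less beta-gal luminescence so fewer parasites; stock transfer was 50 nL into about 50 µL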
AF4-AF9 inh = inhibitors of AF4 peptide binding to AF9, primary screen, biochemical, AlphaScreen, biotin-AF4 peptide, FLAG-AF9, single point | Protein AF-9 (Homo sapiens), P42568 | inhibition, % at 10 µM | 0.47% of 350,000 active;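 active means every replicate reaching a set inhibition limit, whatever the replicate mean, cut at about 25% in these data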;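 further: 0% = plate neutral control median and 100% = total signal loss; the record names both 10 and 1 µM as test concentration; the first replicate is given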
FGF22 binding = binders of human FGF22 protein, primary screen, FGF22 synaptogenesis inhibitor project, biophysical, thermal shift, single point | Fibroblast growth factor 22 (Homo sapiens), Q9HCT0 | recombinant FGF22 thermal shift, SYPRO orange fluorescence; percent of sucrose octasulfate shift, DMSO zero | calls only at 9.99 µM | 1.5% of 340,000 active | AID 651658, 2012;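 active means melting point raised past a set limit in the mean and every replicate; three in four hits are not shown here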
Target sequence (Q9HCT0 whole entry, looked up): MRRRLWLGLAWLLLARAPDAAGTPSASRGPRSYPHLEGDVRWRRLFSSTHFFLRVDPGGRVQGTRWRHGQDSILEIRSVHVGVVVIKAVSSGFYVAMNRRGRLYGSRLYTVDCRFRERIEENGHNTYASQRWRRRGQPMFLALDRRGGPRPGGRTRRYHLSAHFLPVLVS
A1 inh = caspase 3/7 activation in MEF A1-2A-BIM cells, primary screen, A1 inhibitor project, cell-based, luminescence, HTS; Caspase-Glo 3/7 luminescence, 3 h; percent of clofoctol response, vehicle zero; caspase activation, % (no concentration beside the values); 0.066% of 330,000 active;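 active means over half of replicate activation scores above 10%, or exactly half above 10 with the replicate mean above 10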;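 further: wells of about 30 µL received 50 nL stock; many hits fall short of the cut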
rRNA inh HTS = reduced GFP signal of wild-type E. coli, primary screen, bacterial rRNA inhibitor project, GFP/RFP fluorescence, OD600, single point | E. coli WT GFP vs humanized-ribosome RFP mutants, 24 h; stronger effect = lower value; DMSO median 0, no signal -100 | GFP signal change (wild-type ribosome), % (no concentration beside the values) | 1.6% of 350,000 active | AID 720706, 2013;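 active means significant combined selectivity score with lowered wild-type GFP, culture density cut under 30%, mutant RFP and density less affected; inactive means any of these conditions unmet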; further: one replicate is shown; some compounds called inactive have numbers as strong as hits
Beta apoptosis = inhibitors of cytokine-induced beta cell apoptosis, primary screen, luminescence; INS-1E cytokine-induced death, ATP luminescence, 48 h; percent of positive-control rescue, neutral wells zero; protection from apoptosis, % (concentration not given with the values); 0.8% of 300,000 active;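 active means all replicates at 75% or more, or half of them and the mean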;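 further: 0% = cytokine-treated negative control wells and 100% = positive control rescue; higher means more ATP so stronger rescue from cytokine killing; wells of about 40 µL received 100 nL stock; the first replicate is given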
rRNA inh HTS OD600 = also measured in rRNA inh HTS; calls as there; OD600 change, %; measured here: OD600 growth;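 optical density of the mix in the first replicate; 0 = DMSO median and -100 = no signal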
rRNA inh HTS RFP = also measured in rRNA inh HTS; calls as there; RFP signal change, %; measured here: RFP humanized mutant strains;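 first replicate; 0 = DMSO median and -100 = no signal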
Active calls of the source: *; i = inactive; nt = not tested or not shown.

#	Structure	rRNA inh HTS	AF4-AF9 inh	Beta apoptosis	UCH37 inh	FGF22 binding
1	CCOC(=O)CCN(Cc1cccs1)S(=O)(=O)c1ccc(F)cc1	nt	nt	4	0.8	nt
2	CC1CC(=O)Nc2ccccc2N1S(=O)(=O)c1ccc(C(F)(F)F)cc1 (centres undefined)	4	-1.7	4	0.4	i
3	[O-]/[N+](=C\c1ccc(OC(F)F)cc1)c1ccccc1	nt	nt	3	2.5	nt
4	N#Cc1ccc(Oc2ccc(S(=O)(=O)N3CCCC3)cn2)cc1	6	-1.6	-1	4.3	i
5	Cn1c(CSCc2ccc(Cl)cc2)nnc1SCC(=O)Nc1nc2ccccc2s1	nt	nt	-6	1.8	nt
6	O=C(CCNc1ccc(Cl)cc1)c1cccs1	nt	nt	-4	-2.0	nt
7	CC1(C)CC(=O)C2=C(C1)NC(=O)CC2c1cc(F)ccc1F (centres undefined)	nt	nt	-3	5.0	nt
8	CC1CCCCN1CC(=O)Nc1ccc2c(c1)OC(F)(F)O2 (centres undefined)	13	-0.3	-7	2.8	i
9	COc1cc(C(=O)Nc2nnc(Cc3ccccc3)s2)cc(OC)c1OC	-12	-4.8	-2	2.0	i
10	CC(=O)N1c2ccc(S(=O)(=O)N3CCCC3)cc2CC1C(=O)NCc1ccc(OC(C)C)cc1 (centres undefined)	-1	1.5	nt	4.9	i
11	COc1ccc(-c2nn(CCC(=O)O)cc2/C=C2\SC(N)=NC2=O)cc1OC	-2	2.5	-1	nt	i
12	O=C(Cn1nc(C(F)(F)F)c2c1CCCCC2)N1CCOCC1	nt	nt	-3	2.3	nt

#	T cruzi repl	Ecoli growth	rRNA inh HTS RFP	A1 inh	rRNA inh HTS OD600
1	-8	0.74	nt	-0.2	nt
2	2	0.69	2.8	-0.6	7
3	-9	0.72	nt	-0.1	nt
4	-4	0.64	-0.2	-0.2	5
5	-19	0.75	nt	nt	nt
6	9	0.71	nt	0.1	nt
7	0	0.76	nt	0.1	nt
8	10	0.7	1.0	0.2	6
9	-5	0.69	4.0	0.0	-19
10	6	0.69	-1.4	-0.2	-1
11	-21	nt	-1.6	0.3	-2
12	-4	0.78	nt	-0.6	nt

The final five records of the part before are carried over, then new ones follow:
#	Structure	rRNA inh HTS	AF4-AF9 inh	Beta apoptosis	UCH37 inh	FGF22 binding
8	CC1CCCCN1CC(=O)Nc1ccc2c(c1)OC(F)(F)O2 (centres undefined)	13	-0.3	-7	2.8	i
9	COc1cc(C(=O)Nc2nnc(Cc3ccccc3)s2)cc(OC)c1OC	-12	-4.8	-2	2.0	i
10	CC(=O)N1c2ccc(S(=O)(=O)N3CCCC3)cc2CC1C(=O)NCc1ccc(OC(C)C)cc1 (centres undefined)	-1	1.5	nt	4.9	i
11	COc1ccc(-c2nn(CCC(=O)O)cc2/C=C2\SC(N)=NC2=O)cc1OC	-2	2.5	-1	nt	i
12	O=C(Cn1nc(C(F)(F)F)c2c1CCCCC2)N1CCOCC1	nt	nt	-3	2.3	nt
13	CCOC(=O)c1cn(Cc2ccccc2)c2cc(C)nn2c1=O	5	-15	4	-65	i
14	Cc1cc2ncn(C3CC(O)C(CO)O3)c2cc1C (centres undefined)	0	-5.2	nt	-1.8	i
15	O=S(=O)(c1cccc(-c2n[nH]c(=S)n2-c2ccc(OC(F)(F)F)cc2)c1)N1CCOCC1	-5	-19	3	5.3	i
16	O=C(C1CCCN1C(=O)c1cccs1)N1CCc2ccccc21 (centres undefined)	nt	nt	-5	1.6	nt
17	Cc1cc(C)c(C)c(C(=O)CSc2nnc(-c3ccc4[nH]c(C)c(C)c4c3)o2)c1C	nt	nt	19	-3.5	nt
18	CN(CC(=O)Nc1ccccc1C(F)(F)F)C(=O)c1ccc2c(=O)n3c(nc2c1)CCC3	4	2.7	4	-5.5	i
19	CCN(CC)Cc1nc2c(c(=O)[nH]1)C(CC)(CC)Cc1ccccc1-2	-7	-1.5	13	6.1	i
20	CCCC1(c2ccccc2)NC(=O)N(CC(=O)NCC2COc3ccccc3O2)C1=O (centres undefined)	-2	4.3	-9	2.6	i
21	Cc1ccccc1NC(=O)Nc1c(C)n(C)n(-c2ccccc2)c1=O	4	-1.8	-6	2.8	i
22	Cn1c(=O)n(C)c2cc([N+](=O)[O-])c(N3CCN(C(=O)c4ccccc4)CC3)cc21	nt	nt	3	0.3	nt
23	CCOC(=O)c1c(NC(=O)CSc2nccn2C)sc(C(=O)NC)c1C	5	-21	-2	4.2	i
24	CCOC(=O)c1cccc(OS(=O)(=O)Cc2ccccc2)c1	-26*	-4.9	nt	5.6	i

#	T cruzi repl	Ecoli growth	rRNA inh HTS RFP	A1 inh	rRNA inh HTS OD600
8	10	0.7	1.0	0.2	6
9	-5	0.69	4.0	0.0	-19
10	6	0.69	-1.4	-0.2	-1
11	-21	nt	-1.6	0.3	-2
12	-4	0.78	nt	-0.6	nt
13	0	0.7	-0.2	-0.3	0
14	nt	0.68	0.9	nt	3
15	nt	0.68	0.5	1.7	-5
16	-1	0.73	nt	0.0	nt
17	55*	0.77	nt	0.9	nt
18	nt	0.63	1.0	-0.1	12
19	19	0.67	0.7	0.0	-3
20	nt	0.64	0.7	0.7	-9
21	-7	0.73	1.1	0.6	11
22	2	0.71	nt	-0.6	nt
23	26	0.67	-1.3	-0.2	-7
24	-7	0.63	-5.7*	0.5	-9.8*

Continued.
#	Structure	rRNA inh HTS	AF4-AF9 inh	Beta apoptosis	UCH37 inh	FGF22 binding
25	COC(=O)c1ccccc1NC(=O)C1CCN(C(=O)c2cc(OC)c(OC)c(OC)c2)CC1	-4	nt	4	-2.3	nt
26	COC(=O)c1c(-c2ccc(OC)cc2)sc2ccc(N3CCOCC3)cc12	-15	17	8	3.8	i
27	Cc1ccc(CNC(=O)C23CN(Cc4ccccc4)CC2C(c2ccc([N+](=O)[O-])cc2)=NO3)cc1 (centres undefined)	11	4.0	-1	0.0	i
28	Clc1ccc(OCc2nnc(SCc3nnc(-c4ccccc4)o3)o2)c(Cl)c1	nt	nt	6	1.0	nt

#	T cruzi repl	Ecoli growth	rRNA inh HTS RFP	A1 inh	rRNA inh HTS OD600
25	9	0.73	-1.8	0.0	-2
26	nt	0.67	9.1	-0.3	-8
27	31	nt	-7.0	0.0	4
28	20	0.71	nt	-0.5	nt

Ordered by formula weight (largest number first): part of the list above
#	Structure	rRNA inh HTS	AF4-AF9 inh	Beta apoptosis	UCH37 inh	FGF22 binding
25	COC(=O)c1ccccc1NC(=O)C1CCN(C(=O)c2cc(OC)c(OC)c(OC)c2)CC1	-4	nt	4	-2.3	nt
28	Clc1ccc(OCc2nnc(SCc3nnc(-c4ccccc4)o3)o2)c(Cl)c1	nt	nt	6	1.0	nt
26	COC(=O)c1c(-c2ccc(OC)cc2)sc2ccc(N3CCOCC3)cc12	-15	17	8	3.8	i

#	T cruzi repl	Ecoli growth	rRNA inh HTS RFP	A1 inh	rRNA inh HTS OD600
25	9	0.73	-1.8	0.0	-2
28	20	0.71	nt	-0.5	nt
26	nt	0.67	9.1	-0.3	-8

Some of the compounds tested; count on the stated rates, not on these rows.
